KCNQ2 pot = enhances the rat KCNQ2 potassium channel; O88943; CHO-K1 KCNQ2, FluxOR thallium flux fluorescence; hits give high values; B-score at 10 µM; actives 0.54% (n = 310,000); AID 2239;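 active = fluorescence ratio B-score at least 3 SD of library B-scores, with initial fluorescence B-score within 3 SD, cut at about 5.3 in these data; same plate scores as AID 2156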;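 also: B-score of peak minus minimum over baseline fluorescence ratio after K+ and Tl+ stimulus; positive B-score means potentiation of KCNQ2 with more thallium influx and brighter signal; only the inactives scoring about 0 or higher are listed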
Target sequence (O88943 whole entry, looked up): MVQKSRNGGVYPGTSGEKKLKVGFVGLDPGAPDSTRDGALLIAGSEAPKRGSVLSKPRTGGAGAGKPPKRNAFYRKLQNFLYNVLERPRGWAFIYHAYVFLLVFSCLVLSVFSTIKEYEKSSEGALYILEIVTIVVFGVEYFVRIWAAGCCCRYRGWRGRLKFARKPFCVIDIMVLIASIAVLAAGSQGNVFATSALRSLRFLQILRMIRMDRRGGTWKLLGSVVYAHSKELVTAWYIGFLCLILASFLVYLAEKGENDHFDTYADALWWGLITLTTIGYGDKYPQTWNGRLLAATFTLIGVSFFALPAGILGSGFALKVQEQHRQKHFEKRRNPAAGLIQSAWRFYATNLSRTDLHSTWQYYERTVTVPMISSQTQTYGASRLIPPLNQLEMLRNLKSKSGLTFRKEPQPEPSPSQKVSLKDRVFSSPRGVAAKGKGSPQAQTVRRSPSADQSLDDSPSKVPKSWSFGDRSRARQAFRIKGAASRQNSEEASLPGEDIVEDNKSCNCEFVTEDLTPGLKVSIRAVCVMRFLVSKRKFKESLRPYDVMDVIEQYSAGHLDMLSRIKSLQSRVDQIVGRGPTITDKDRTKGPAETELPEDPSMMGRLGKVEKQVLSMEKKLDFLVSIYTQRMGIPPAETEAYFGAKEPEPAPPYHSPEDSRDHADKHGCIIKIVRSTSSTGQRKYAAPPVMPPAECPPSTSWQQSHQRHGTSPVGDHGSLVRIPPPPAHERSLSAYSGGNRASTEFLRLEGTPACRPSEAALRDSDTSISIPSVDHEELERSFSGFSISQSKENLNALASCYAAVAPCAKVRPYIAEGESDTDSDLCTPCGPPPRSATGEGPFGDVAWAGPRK
KCNQ2 pot baseline = further read-out of KCNQ2 pot, marked with its call; B-score; compound at 10 µM; measured here: initial fluorescence intensity artifact check;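 brightness before thallium and not channel activity; 0 = typical well and far values either way flag optical interference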
An asterisk follows results filed as active. A portion of the library (hit frequency here may not be typical).

Each structure is followed by: KCNQ2 pot, KCNQ2 pot baseline
CCn1cc(C(=O)NCc2ccc3c(c2)OCO3)c(=O)c2cc(S(=O)(=O)N3CCOCC3)ccc21
    0.48, -2.54
CCOc1cc(C2NC(=O)N(C)C(C)=C2C(=O)OC)cc(Br)c1O (configuration not stated)
    0.01, 0.21
COc1ccc(/C=C2\SC(=O)N(CCn3cnnn3)C2=O)cc1
    0.3, 0.01
COc1ccc(C(=O)Nc2ccnn2C2CCN(CC3CC=CCC3)CC2)cc1 (configuration not stated)
    0.26, -0.21
Cc1cccc(C(=O)OCC(=O)c2ccc3c(c2)OCO3)c1O
    0.79, -1.29
CN(C)C(=O)Cn1c(SCC(=O)NC2CCCCC2)nc2ccccc21
    1.7, 0.46
CCN1C(=O)/C(=C2/Sc3ccccc3N2CC)SC1=S
    0.08, -1.86
CCn1c(NC(=O)c2ccccc2)nc2ccccc21
    0.92, 1.05
N#Cc1ccccc1NC(=S)NC(=O)c1cccnc1
    0.31, -1.46
O=C(O)c1cn(Cc2ccccc2)c2ccccc2c1=O
    0.25, 0

6 entries picked at random from those above:
Each structure is followed by: KCNQ2 pot, KCNQ2 pot baseline
O=C(O)c1cn(Cc2ccccc2)c2ccccc2c1=O
    0.25, 0
CCN1C(=O)/C(=C2/Sc3ccccc3N2CC)SC1=S
    0.08, -1.86
CN(C)C(=O)Cn1c(SCC(=O)NC2CCCCC2)nc2ccccc21
    1.7, 0.46
COc1ccc(C(=O)Nc2ccnn2C2CCN(CC3CC=CCC3)CC2)cc1 (configuration not stated)
    0.26, -0.21
CCOc1cc(C2NC(=O)N(C)C(C)=C2C(=O)OC)cc(Br)c1O (configuration not stated)
    0.01, 0.21
Cc1cccc(C(=O)OCC(=O)c2ccc3c(c2)OCO3)c1O
    0.79, -1.29

Continued.
Each structure is followed by: KCNQ2 pot, KCNQ2 pot baseline
CCc1nnc(NC(=O)CCC(=O)NCC2CCCO2)s1 (configuration not stated)
    0.08, 0.61
O=C(NCc1ccccc1F)c1cccs1
    0.85, 1.09
COc1ccccc1N1CCN(Cc2cc(Br)c(O)c3ncccc23)CC1
    1.22, -0.45
C=CCN1C(=O)/C(=C2/C(=O)N(CC(=O)O)c3ccccc32)S/C1=N/c1nccs1
    0.94, -0.5
O=C(CSCc1cnn(-c2ccccc2)c1-n1cccc1)NCC1CCCO1 (configuration not stated)
    0.13, -0.06
CC(C)Cc1nnc(NC(=O)c2cc(-c3ccncc3)nc3ccccc23)s1
    1.11, -0.26
Cc1ccc(S(=O)(=O)N[C@@H](Cc2ccccc2)C(=O)N2CCC(C(=O)N[C@H](C(=O)O)C(C)O)CC2)cc1 (some centres not stated)
    0.19, 0.07
C/C(=N\Nc1nc2ccccc2[nH]1)c1ccc(C)o1
    0.11, -0.6
CC(=O)NS(=O)(=O)c1ccc(NC(=O)C2c3ccccc3Oc3ccccc32)cc1
    0.86, 0
C=CCNC(=O)C(C(=O)OCC)C1CCCCC1 (configuration not stated)
    1.5, 0.83

Three entries from above, with tabs.
Structure	KCNQ2 pot	KCNQ2 pot baseline
CC(C)Cc1nnc(NC(=O)c2cc(-c3ccncc3)nc3ccccc23)s1	1.11	-0.26
CC(=O)NS(=O)(=O)c1ccc(NC(=O)C2c3ccccc3Oc3ccccc32)cc1	0.86	0
O=C(NCc1ccccc1F)c1cccs1	0.85	1.09

The list goes on.
Each structure is followed by: KCNQ2 pot, KCNQ2 pot baseline
O=C(NN=C1CCCC1)c1ccn[nH]1
    1.12, 0.02
CCOC(=O)CC(=O)CSc1nnc2c(n1)[nH]c1ccccc12
    0.77, -0.05
Cc1nc(CNS(=O)(=O)c2cc(F)ccc2F)cs1
    0.35, -0.92
COc1cc(OC)cc(C(=O)NNc2nc3cc4c(cc3s2)OCO4)c1
    2.08, -0.78
Cn1c(SCC(=O)c2c(N)n(C)c(=O)n(C)c2=O)nnc1-c1ccc(F)cc1
    1.17, 1.06
Cc1nc2[nH]c(=O)c3c(n2n1)NC1=C(C(=O)CC(C)(C)C1)C3c1ccccc1 (configuration not stated)
    0.39, -0.04
COc1nc(OC)nc(N2CCC(C(=O)NCc3ccc(F)cc3)CC2)n1
    0.75, 1.11
O=C(O)COn1c(-c2ccccc2)nc2ccc([N+](=O)[O-])cc21
    0.31, -0.45
CC1CCC(=NNC(=O)c2ccccc2-n2cccc2)CC1 (configuration not stated)
    1.23, 0.16
Cc1noc(C)c1COc1ccccc1C(=O)NCCc1ccc(S(N)(=O)=O)cc1
    0.9, -0.13
CC(C)N(CC(O)COc1ccc(CC(N)=O)cc1)CC(O)COc1ccc(CC(N)=O)cc1 (configuration not stated)
    0.6, -0.59
Nc1c(C=C2C=CC(=O)C=C2)c(=O)nc2sc(CC(=O)N3CCOCC3)nn12
    0.05, 0.88
Cc1cc(C=O)c(C)n1-c1cc(C(=O)O)cc(C(=O)O)c1
    1.07, -0.7
COCCn1c(C)cc(C(=O)CSc2nnc(C)s2)c1C
    0.19, 0.1
Cc1ccc(-n2c(SCC(=O)N(C)C)nnc2-c2ccco2)cc1
    1.35, -2.57
Cc1cc(C)cc(NC(=O)c2cccc(N3C(=O)C4C5C=CC(C5)C4C3=O)c2)c1 (configuration not stated)
    0.36, -1.83
CCN(CC(=O)Nc1ccccc1C(F)(F)F)C(=O)Cn1c(=O)cnc2ccccc21
    1.23, -0.91
CCCCC(C(=O)NC(C)(C)C)N(Cc1ccccc1Cl)C(=O)c1snc(C(N)=O)c1N (configuration not stated)
    3.69, -1.92
CC(Oc1ccc2ccc(=O)oc2c1)C(=O)NCC1CCC(C(=O)O)CC1 (configuration not stated)
    0.94, 2.36
Cc1c(Cl)cccc1N=C(N)N=C(N)N
    0.95, -1.09
N#Cc1ccc(C(=O)NCC(c2ccco2)N2CCCCC2)cc1 (configuration not stated)
    0.08, -3.03
CCN1CCN(C(c2cc(OC)c(OC)c(OC)c2)c2nnnn2C(C)C)CC1 (configuration not stated)
    0.86, -0.63
COC1(OC)N=C(N)C2(C#N)C(c3ccc(C)cc3)C12C#N (configuration not stated)
    0.4, -0.03
CC(C)c1cc(C(=O)N2CCCC(Nc3ccc(F)cc3)C2)n[nH]1 (configuration not stated)
    1.29, -0.52
O=C(CSc1nnc(-c2ccc(Cl)cc2)o1)N1CCOCC1
    0.55, -2.84
O=C(NCC(=O)N1CCCC(C(F)(F)F)C1)c1ccc(Br)o1 (configuration not stated)
    1.26, -1.05
Nc1nc(SCC(=O)C23CC4CC(CC(C4)C2)C3)n[nH]1
    0.53, 1.15
CCOC(=O)c1cc(CC)sc1NC(=O)COC(=O)c1cnccn1
    1.33, -1.05
CCOc1ccc(-n2cc(-c3ccccc3)c3c(=S)nc[nH]c32)cc1
    6.9*, 3.71*
CC(C)CCN=Cc1c(O)n(-c2ccccc2)c(=O)c2ccccc12
    0.6, -0.38

Compounds shown so far containing a CF3 group (two):
Each structure is followed by: KCNQ2 pot, KCNQ2 pot baseline
CCN(CC(=O)Nc1ccccc1C(F)(F)F)C(=O)Cn1c(=O)cnc2ccccc21
    1.23, -0.91
O=C(NCC(=O)N1CCCC(C(F)(F)F)C1)c1ccc(Br)o1 (configuration not stated)
    1.26, -1.05

New compounds follow
Each structure is followed by: KCNQ2 pot, KCNQ2 pot baseline
O=C(CN1CCCC1=O)NC1(C(F)(F)F)NC(=O)N(Cc2ccccc2)C1=O (configuration not stated)
    0.99, 0.19
O=C(CCl)N1CCN(CC(=O)N2CCCC2)CC1
    1.09, 0.7
O=C(c1ccco1)N1CCN(Cc2cc(=O)c(OCc3c(F)cccc3Cl)co2)CC1
    1.51, -0.68
CCn1c2ccccc2c2cc(NC(=O)c3ccco3)ccc21
    0.14, 0.04
O=C1C(C2=NC(c3ccccn3)C3C(=O)N(c4ccc(OC(F)(F)F)cc4)C(=O)C23)=C(O)c2ccccc21 (configuration not stated)
    0.21, 1.55
CCN(C(=O)CSc1nnc(-c2c[nH]c3ccccc23)o1)C1CCS(=O)(=O)C1 (configuration not stated)
    0.96, -2.41
COc1ccc(CN2C(=O)C(=O)N(CC(N)=O)C2=O)cc1
    0.46, -3.46
Cc1ccc2c(c1)/C(=C/c1ccccc1C)C(=O)N2
    0.03, 1.17
COC(=O)c1sc(S(=O)(=O)NCCCN(C)C)c(C(=O)OC)c1C
    0.44, -0.81
Cc1oc(S(=O)(=O)N(C)C)cc1C(=O)Nc1ccc(F)cc1
    0.19, -0.05

Sorted by molar mass (falling): part of the list above
Each structure is followed by: KCNQ2 pot, KCNQ2 pot baseline
Cc1oc(S(=O)(=O)N(C)C)cc1C(=O)Nc1ccc(F)cc1
    0.19, -0.05
COc1ccc(CN2C(=O)C(=O)N(CC(N)=O)C2=O)cc1
    0.46, -3.46
O=C(CCl)N1CCN(CC(=O)N2CCCC2)CC1
    1.09, 0.7

(cont.)
Each structure is followed by: KCNQ2 pot, KCNQ2 pot baseline
CN(C)S(=O)(=O)c1cccc(NC(=O)CN2C(=O)NC(Cc3c[nH]c4ccccc34)C2=O)c1 (configuration not stated)
    0.25, 1.66
Cc1ccccc1OCCC(=O)N1CCN(S(=O)(=O)c2ccc(F)cc2)CC1
    0.05, -2.26
COc1ccc(NC(=O)c2cc(-c3ccc4c(c3)OCO4)on2)cc1OC
    0.14, -1.16
Cc1cc(C)c(/C=N/n2c(C)cc(C)c(C#N)c2=O)c(C)c1
    2.13, 1.01

Screening data as filed in PubChem BioAssay.
